eIF4H FP inh: human eIF4H binding inhibitors, primary screen, translation initiation inhibitor project, biochemical, uHTS, fluorescence polarization; Eukaryotic translation initiation factor 4H (Homo sapiens), Q15056; eIF4H fluorescence polarization binding assay; inhibition, % at 35 µM; hit rate 0.94% among 290,000; AID 2012, 2009;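 active means 50% or more with normal probe brightness, or confirmed in later tests; about a fifth of its hits are not listed in these tables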;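 further: calls also rest on retests at 20 µM and on dose response follow-up; 0% = protein and probe with vehicle and 100% = probe without protein; strong numbers were not always called active; many hits fall short of the cut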
CSC inhib: cancer stem cell viability inhibitors, primary screen, luminescence; cancer stem cell-like cells viability; inhibition, % at 7.5 µM; hit rate 1.1% among 300,000; AID 2717, 2010;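 active means mean at 75% or more and at least half the replicates too; tested in HMLE shEcad cells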;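 further: 0% = median of negative and 100% = median of positive control wells; the first replicate is given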
PABP FP inh: PABP poly(A) RNA binding inhibitors, primary screen, biochemical, fluorescence polarization, uHTS; AID 2014, 2009; Polyadenylate-binding protein 1 (Homo sapiens), P11940; hit rate 1% among 290,000; inhibition, % at 35 µM;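 active means 50% or more with normal probe brightness, or confirmed in later tests; about a fifth of its hits are not listed in these tables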;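 further: calls also rest on retests at 20 µM and on dose response follow-up; controls were probe without protein and protein plus probe with vehicle; some compounds called inactive have numbers as strong as hits; many hits fall short of the cut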
Target sequence (P11940 whole entry, looked up): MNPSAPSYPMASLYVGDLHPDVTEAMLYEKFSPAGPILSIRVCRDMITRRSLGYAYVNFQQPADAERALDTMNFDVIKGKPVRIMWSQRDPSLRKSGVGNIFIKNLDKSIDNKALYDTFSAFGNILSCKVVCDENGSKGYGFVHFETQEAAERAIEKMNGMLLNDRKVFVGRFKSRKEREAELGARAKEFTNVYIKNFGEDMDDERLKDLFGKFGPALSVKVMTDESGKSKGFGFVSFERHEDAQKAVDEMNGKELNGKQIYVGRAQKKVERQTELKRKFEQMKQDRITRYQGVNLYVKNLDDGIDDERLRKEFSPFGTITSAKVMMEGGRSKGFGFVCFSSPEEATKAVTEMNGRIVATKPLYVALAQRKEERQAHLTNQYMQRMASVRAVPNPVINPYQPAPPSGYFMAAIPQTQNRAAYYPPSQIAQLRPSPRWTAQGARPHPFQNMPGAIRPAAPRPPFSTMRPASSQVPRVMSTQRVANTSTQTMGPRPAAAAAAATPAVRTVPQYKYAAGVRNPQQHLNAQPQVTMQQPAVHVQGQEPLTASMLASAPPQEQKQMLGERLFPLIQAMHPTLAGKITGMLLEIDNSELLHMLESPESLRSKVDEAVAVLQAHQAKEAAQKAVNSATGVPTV
Env fusion inh: inhibitors of HIV-1 Env-driven cell-cell fusion, primary screen, HeLa-JRFL effector, CEM21 target cells, luciferase; inhibition, % at 12.3 µM; hit rate 1.1% among 360,000;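 active means mean replicate inhibition score of at least 50 and every replicate individually at or above 50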;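 further: 0% = plate neutral controls and 100% = maraviroc near 300 nM; one replicate is shown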
UUG fidelity: modulators of yeast start codon fidelity, primary screen, whole organism, S. cerevisiae, single point, plate reader; AID 602363, 2012; activity score, % at 18.7 µM; hit rate 0.13% among 350,000; S. cerevisiae UUG-firefly luciferase reporter, luminescence/redox ratio;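 active means replicate mean at a twofold rise or more, about +100% in these data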;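 further: firefly luciferase made from a UUG start codon reports start codon fidelity; reporter light over untreated wells divided by growth signal over untreated wells; some hits fall short of that in this replicate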
MT1-MMP act inh: blockers of MT1-MMP proenzyme processing, primary screen, HT1080 RFP-PRO-GFP cells, GFP/RFP fluorescence | GFP/RFP ratio fluorescence, overnight; percent of plate control window, DMSO zero | GFP/RFP ratio change, % at 20 µM | hit rate 0.061% among 360,000;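 active means GFP/RFP ratio change of at least 30% with cell ATP level not reduced by more than half and red fluorescence within 50% of control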; further: strong numbers were not always called active
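Read-out: GFP/RFP fluorescence ratio; Test system: RFP-PRO-GFP reporter HT1080 cells; Compound dosing: single-point 20 µM compound, 1% DMSO; Times: overnight compound exposure at 37 °C.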
Rce1 inhib: yeast Rce1p protease inhibitors, primary screen, biochemical, fluorescence, cell-free homogeneous. yeast membranes, quenched prenylated peptide cleavage fluorescence. AID 2563, 2010. calls only. CAAX prenyl protease 2 (Saccharomyces cerevisiae (strain ATCC 204508 / S288c)), Q03530. hit rate 0.27% among 290,000;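 active means fall in fluorescence gain of 50% or more versus controls, with final raw signal at or below 3038400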;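 further: plate controls were neutral control wells for no effect and wells lacking membranes for full effect; tested at 10 µM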
Target sequence (Q03530 whole entry, looked up): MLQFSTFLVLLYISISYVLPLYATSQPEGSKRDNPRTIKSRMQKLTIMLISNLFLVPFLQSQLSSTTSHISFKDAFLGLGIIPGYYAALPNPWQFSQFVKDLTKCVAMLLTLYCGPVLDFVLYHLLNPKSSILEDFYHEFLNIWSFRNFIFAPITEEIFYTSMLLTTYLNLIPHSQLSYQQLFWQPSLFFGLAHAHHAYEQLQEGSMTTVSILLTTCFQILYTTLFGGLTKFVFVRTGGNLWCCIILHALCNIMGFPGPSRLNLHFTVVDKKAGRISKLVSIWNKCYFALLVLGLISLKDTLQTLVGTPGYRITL
MT1-MMP act inh RFP: further read-out of MT1-MMP act inh, marked with its call; RFP signal change, %; measured here: RFP expression control read;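 0 = vehicle wells; hits needed this value within 50% of zero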
The depositor's hits bear a star; i = inactive; nt = not tested or not shown.

SMILES	eIF4H FP inh	CSC inhib	PABP FP inh	Env fusion inh	UUG fidelity	MT1-MMP act inh	MT1-MMP act inh RFP	Rce1 inhib
COc1ccc(CC(NC(C)=O)C(=O)NC2CCN(C(=O)c3ccc([N+](=O)[O-])cc3)CC2)cc1OC (stereo unspecified)	6	2	-5	-4	3	2	3	i
CCn1cc(C(=O)NP(=O)(Nc2ccc(C)cc2)Nc2ccc(C)cc2)c2ccccc21	9	-9	13	-12	-8	1	0	nt
Cn1nnnc1SCCNS(=O)(=O)c1ccccc1	-10	-4	-8	nt	-18	-4	-1	i
N#Cc1c(N)oc(-c2ccccc2)c1-c1ccccc1	-10	-7	4	-113	-12	-3	-16	i
Nc1nnc(CCS(=O)(=O)c2ccc(Br)cc2)s1	3	6	-11	-1	18	-3	0	nt
Cc1c(NC(=O)c2c(O)c3ccccc3n(C)c2=O)c(=O)n(-c2ccccc2)n1C	1	-13	8	9	nt	-2	-2	i
c1ccc2c(c1)nc(N1CCCCCC1)c1nncn12	nt	nt	nt	13	-13	4	-3	nt
CCOc1ccc(NC(=O)NNC(=O)c2cc3ccccc3cc2O)cc1	10	-3	-17	nt	-22	-2	2	i
Cc1oc(-c2ccccc2)cc1C(=O)Nc1ccc2ccccc2c1	-14	7	-8	nt	-10	1	6	i
O=C1CCCN1c1ccc(S(=O)(=O)NCCOc2ccccc2)cc1	-4	6	4	30	2	20	-4	i
O=C(Nc1ccnn1C1CCN(C(=O)c2cccc(Cl)c2)CC1)C1CC1	-2	1	12	-12	-4	0	7	i
Cc1cc(OCC(=O)NNC(=O)c2cccc(F)c2)ccc1Cl	nt	-10	nt	nt	-9	-1	3	nt
Cc1cc(C)c(-c2c(O)c3cnn(-c4ccccc4)c3[nH]c2=O)c(C)c1	-1	0	6	4	-9	4	-6	i
COc1cc(NC(=O)CNc2ccc(Cl)c(S(=O)(=O)N3CCOCC3)c2)cc(OC)c1	nt	4	nt	-23	-5	4	-10	nt
N#CCO/N=C/C(=O)Nc1ccc(F)cc1F	-8	-3	10	-43	nt	0	2	i
O=C(Nc1ccc(-c2nc3cccnc3s2)cc1)c1cccnc1Cl	6	-3	-4	-138	-1	-7	-7	i
Cc1cc(C)cc(NC(=S)NC2CC3CCCC(C2)N3CC(C)C)c1 (stereo unspecified)	-6	-3	0	4	-18	6	2	i
COCCCN1CN(Cc2ccco2)CNC1=S	-2	-17	10	-1	-28	2	-1	i
CC1(NC(=O)CC(c2ccccc2)(c2ccccc2)c2ccccc2)CCN(CCCc2ccccc2)C1=O (stereo unspecified)	nt	100*	nt	6	-12	-24	-34	nt
COc1cc(OC)c(OC)cc1/C=N/NC(=O)c1cc(-c2cccn2C)n[nH]1	-14	-6	-8	5	-27	7	2	i
Cc1ccc(C)c(SCC(=O)OCC(=O)Nc2ccc(S(=O)(=O)N3CCOCC3)cc2)c1	6	-12	-11	nt	-10	3	3	i
CCC(C)(C)NC(=O)C(c1ccccc1F)N(Cc1ccco1)C(=O)c1csnn1 (stereo unspecified)	-7	3	-6	53*	-3	-3	3	i
CN(CC(=O)Nc1ccccc1Br)C(=O)CN(C)C1CCCCC1	nt	-10	nt	nt	-19	-1	5	nt
CC(C)NCCCCOc1ccccc1-c1ccccc1	-9	3	4	nt	nt	nt	nt	i
CCOC(=O)COc1c(-c2ccc(OC)cc2)oc2ccccc2c1=O	-1	-16	30	-135	-31	2	-1	i
O=C(O)COc1ccc(Nc2ccccc2)cc1	6	5	-9	3	nt	2	6	i
COC(=O)C1=C(CSc2nnnn2C)NC(=O)NC1c1cc(C)ccc1C (stereo unspecified)	-2	-13	-6	nt	-3	-3	-2	i
Cc1ccc(C)c(S(=O)(=O)N/N=C/c2ccc(C(=O)O)cc2)c1	10	nt	16	2	-10	-8	2	i
COc1ccc(OC)c(/C=N/NC(=O)CCc2c(C)n[nH]c2C)c1	-3	-13	8	2	-18	5	5	i
CCN(CC)CCNc1ccc(Cl)cc1[N+](=O)[O-]	nt	10	nt	-29	-6	16	5	i
CN(CC(=O)Nc1cccc(F)c1)C(=O)c1ccc2c(c1)NC(=O)CS2	nt	-13	nt	15	17	0	2	nt
CCOc1ccc(NC(=O)C(=O)N/N=C/c2ccccc2F)cc1	13	-5	-9	-9	nt	-4	1	nt
O=C(COc1ccccc1)Nc1sc2c(c1C(=O)NCc1cccnc1)CCCC2	2	28	2	nt	nt	-6	-2	i
S=c1[nH]nc(Cn2nnc3ccccc32)n1-c1ccc(Cl)cc1	0	-6	-1	1	nt	1	3	i
Cc1ccc2nc(C(C)(C)C)c(Cc3cccc(Cl)c3)n2c1	nt	nt	nt	-21	35	1	-5	nt
COc1cccc2c(=O)n(CC(=O)Nc3ccc(F)cc3F)ccc12	-10	nt	-11	7	-39	2	2	i
N#Cc1ccc(N2CCN(C(=O)c3cccs3)CC2)c(F)c1	-1	-4	3	-7	5	2	-6	i
Nc1cc(S(=O)(=O)N2CCCCC2)ccc1Oc1ccc(Cl)cc1	-9	1	-10	9	nt	-2	-19	i
CC(=O)c1c(C)[nH]c(C(=O)Nc2nc(-c3ccccc3)c(C)s2)c1C	10	5	12	-191	4	0	-4	i
CCN(CC)c1ccc(NC(=O)CN2CCN(CC(=O)Nc3ccc(F)cc3)CC2)cc1	-10	-16	-4	nt	-16	2	0	nt
Cc1cccc(CCNC(=O)C2CCN(S(=O)(=O)N3CCOCC3)CC2)c1	5	-5	6	3	-5	1	-1	i
Cc1ccc(NC(=S)N2CCN(C(=O)c3ccccc3)CC2)c(C)c1	-8	-13	-9	6	nt	-3	-1	i
O=C(Cn1cnc2c(cnn2-c2ccccc2)c1=O)Nc1ccc(S(=O)(=O)N2CCOCC2)cc1	-4	nt	5	nt	13	-2	0	i
COc1ccc(C(=O)NC2CC3CCCC(C2)N3CC(C)C)cc1OC (stereo unspecified)	-1	1	-4	-40	-10	2	1	i
Cc1nc2c(Cl)cccc2[nH]1	-2	-16	2	-107	-22	0	0	i
Cc1csc(-c2cnn(-c3ccccc3)c2NC(=O)c2ccccc2)n1	-1	-9	6	-21	10	3	5	i
CC(Sc1nnc(NC2CCCCC2)s1)C(=O)Nc1ccc2c(c1)C(=O)c1ccccc1C2=O (stereo unspecified)	4	31	-14	-128	-31	0	-8	i
CCOC(=O)c1c(N)sc(C(=O)N2CCOCC2)c1C	-1	-12	8	-45	-12	0	2	i
CC[C@]12c3[nH]c4cc(CCC(=O)N(C)C)ccc4c3CCN1C(=O)[C@@H](CC(=O)NCCc1ccccn1)C[C@@H]2C(=O)N1CCN(C(=O)c2ccco2)CC1	nt	nt	nt	-5	-10	4	4	nt
COc1ccc(C(=O)NC(=S)Nc2ccccc2N2CCCCC2)cc1[N+](=O)[O-]	-11	101*	-1	21	nt	-7	-12	i
CC1(C(=O)NS(=O)(=O)c2cccc(F)c2)CCN1C(=O)C1(c2ccc(Cl)cc2)CCC1 (stereo unspecified)	nt	nt	nt	-4	-7	-3	-3	nt
COC(=O)C(CCSC)NC(=O)/C=C/c1ccc(OC)cc1 (stereo unspecified)	5	-16	0	7	nt	-3	4	i
C=CCn1c2ccccc2c2nnc(SCCN3CCOCC3)nc21	-2	-15	3	1	-13	0	-5	i
COc1ccc(C(=O)N(C)Cc2ccc(OC)c(OC)c2OC)cc1S(=O)(=O)N1CCOCC1	nt	nt	nt	4	-24	2	0	nt
CC(=O)c1ccc(NC(=O)c2noc3c2CCCCC3)cc1	2	-7	-4	-197	-15	1	2	i
COc1ccc(C(=O)N(C)C2CCCCC2)cc1OC1CCN(C(C)C)CC1	12	-7	8	12	-11	0	4	nt
Cc1ccc(S(=O)(=O)NN)c(C)c1N1CCCC1=O	3	-11	7	10	3	-1	-2	i
O=C(NCc1ccccc1)c1ccc2c(=O)n(CC3CCCO3)c(=S)[nH]c2c1 (stereo unspecified)	-4	-1	-11	-20	-1	4	-3	i
O=C(CSCc1ccccc1)N=Nc1c(O)[nH]c2ccccc12	-5	3	-10	-33	-16	5	2	i
CCOC(=O)C(NC(=O)CC)(Nc1ccc(S(=O)(=O)Nc2ncccn2)cc1)C(F)(F)F (stereo unspecified)	-2	-10	7	7	-42	5	4	i
Continuation.
SMILES	eIF4H FP inh	CSC inhib	PABP FP inh	Env fusion inh	UUG fidelity	MT1-MMP act inh	MT1-MMP act inh RFP	Rce1 inhib
Cn1nnnc1SCc1ccc(C(=O)Nc2ccc(Br)cc2)cc1	-9	2	-3	nt	-14	-6	-17	i
O=C(NC(=S)Nc1ccc(Cl)cc1Cl)C1CC1	2	2	-4	-75	-19	-2	-3	i
CC(C)c1ccc(OCC(=O)NC(Cc2c[nH]c3ccccc23)C(=O)O)cc1 (stereo unspecified)	10	-20	-2	-9	2	-1	-1	i
CC1Cc2ccccc2N1C(=O)c1ccc2nccnc2c1 (stereo unspecified)	-6	-10	-16	8	-18	0	-1	i
O=[N+]([O-])c1cccc(S(=O)(=O)Nc2ccc(Cc3ccncc3)cc2)c1	-2	0	-1	-6	nt	12	-22	i
CCOCCCNC(=O)C1CCCN(S(=O)(=O)c2cccc3nsnc23)C1 (stereo unspecified)	-11	-2	3	4	-3	0	2	i
COc1ccc(Cl)cc1NC(=O)c1nnn(CC(=O)Nc2cc(C)cc(C)c2)c1N	0	-2	3	4	-15	6	9	i
CN(CC1CCCN(CCc2ccc(Cl)cc2)C1)C(=O)CC(F)(F)F (stereo unspecified)	3	-4	-3	-10	-9	-4	0	i
CC(C)CO/C(=N/S(=O)(=O)c1ccccc1)c1ccccc1	-1	5	2	-14	-7	5	2	i
CCOc1ccc2nc(N3CCCC(C(=O)NCCCN4C(C)CCCC4C)C3)sc2c1 (stereo unspecified)	-9	-12	2	11	-7	0	0	i
Cc1cccc(C)c1NC(=O)CNC(=O)C(C)N(C)CC(=O)Nc1ccc(F)cc1 (stereo unspecified)	nt	nt	nt	-13	6	-4	0	nt
Cc1ccc(S(=O)(=O)N2CCC(C(=O)NNC(=O)c3ccccc3O)CC2)cc1C	nt	-4	nt	6	nt	6	0	i
CCc1ccc(-c2cc(C(=O)N/N=C/c3ccccn3)[nH]n2)cc1	13	-1	2	0	nt	1	-2	i
O=C(CSc1ncc(-c2ccc(F)cc2)n1Cc1ccco1)Nc1ccc2c(c1)OCO2	10	40	-1	nt	-27	2	-9	i
COc1ccc(OC)c(/C=N/NC(=O)C(=O)N2CCCCCC2)c1	-12	-11	-6	-3	-5	-1	2	nt
O=C(O)c1ccccc1NC(c1ccccc1)c1ccc(Cl)cc1 (stereo unspecified)	3	7	9	7	nt	1	3	i
Cc1cc(-c2nnc(SCCC(=O)Nc3ccccc3)o2)no1	2	-14	11	12	-15	4	0	i
Cc1ccc(NC(=O)c2ccc(Cl)nc2)cc1	6	2	14	-22	nt	-10	-2	i

An unsorted share of the library; 3% or so of the library scored in one or more.
